Screening results (PubChem BioAssay)
PV pol inh = inhibitors of poliovirus RNA polymerase binding and polymerization; P03300; poliovirus polymerase elongation, fluorescence polarization; stronger effect = lower value; % elongation, % (compound at 16.7 µg/mL); 0.66% of 150,000 active; in the data active means % elongation below about 90%; further: some results filed as inactive read as strong as hits
Target sequence (P03300 1749-2209 limits assumed): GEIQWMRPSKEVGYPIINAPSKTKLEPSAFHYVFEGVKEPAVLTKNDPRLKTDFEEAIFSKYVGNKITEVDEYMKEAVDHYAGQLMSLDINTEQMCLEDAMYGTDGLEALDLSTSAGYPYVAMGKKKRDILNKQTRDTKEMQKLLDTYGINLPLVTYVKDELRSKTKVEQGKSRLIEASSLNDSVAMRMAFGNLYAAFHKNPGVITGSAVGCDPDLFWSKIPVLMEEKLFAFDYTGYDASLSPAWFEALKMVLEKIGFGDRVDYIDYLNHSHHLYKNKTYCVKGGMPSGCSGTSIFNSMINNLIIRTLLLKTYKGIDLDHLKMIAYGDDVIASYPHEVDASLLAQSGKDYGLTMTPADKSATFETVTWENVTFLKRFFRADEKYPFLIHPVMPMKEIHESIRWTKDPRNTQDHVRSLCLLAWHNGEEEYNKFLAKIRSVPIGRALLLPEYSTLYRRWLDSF
PV pol inh intensity = recorded beside PV pol inh, whose call it bears; % elongation; measured here: total intensity read-out; formula for this scale not given here;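 total fluorescence in place of polarization; lower means less elongation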
The depositor's hits bear a star. Some of the compounds tested (hit frequency here may not be typical).

Compound | PV pol inh | PV pol inh intensity
COc1ccc(-c2oc3ncn4nc(-c5ccc(Cl)cc5)nc4c3c2-c2ccc(OC)cc2)cc1 | 105 | 105
COc1ccc(Br)cc1CNC(=O)c1ccc2c(c1)nc1n2CCC(C)C1 (stereo not given) | 106 | 106
CC(CNC(=O)C1CCN(Cc2cc3ccccc3n2Cc2ccccc2)CC1)c1ccccc1 (stereo not given) | 108 | 116
COc1ccc(N2CCN(C(=O)c3noc4c3CCCCC4)CC2)cc1 | 101 | 107
O=C(CCC1N=C2c3ccccc3N=C(SCc3ccccc3Cl)N2C1=O)NCc1cccs1 (stereo not given) | 106 | 114
O=C(CCS(=O)(=O)c1nc(-c2cccs2)cc(C(F)(F)F)n1)Nc1ccc(F)c(Cl)c1 | 105 | 104
CCc1ccc(NC(=O)c2cc3nc(-c4ccc(C)cc4)cc(C(F)(F)F)n3n2)cc1 | 107 | 110
O=C(c1cc2c(Cl)nc3ccccc3c2s1)N1CCCCC1 | 105 | 108
COc1ccc(OC)c(CNC(=O)c2ccc3nc(C(C)C)oc3c2)c1 | 103 | 106
Cc1cc(C)c(NC(=O)C(=O)NCC(c2cccnc2)N2CCN(c3ccccc3F)CC2)c(C)c1 (stereo not given) | 110 | 106
CC1=C(C(=O)Nc2ccc(F)cc2)C(c2ccc(N(C)C)cc2)NC(=O)N1 (stereo not given) | 108 | 104
CN(C)CCCNc1cc(N2CCN(C3CCCCC3)CC2)c2noc3c2c1C(=O)c1ccccc1-3 | 160 | 212
COc1ccc(NC(=O)Cn2c(=O)n(-c3ccccc3)c(=O)c3c4c(sc32)CCCC4)cc1 | 107 | 111
COc1ccc(S(=O)(=O)c2cnc3ccc(Cl)cc3c2N2CCCCC2C)cc1 (stereo not given) | 104 | 106
Cc1ccc(C2NC(=O)c3n[nH]c(-c4cccs4)c32)cc1 (stereo not given) | 104 | 107
COc1ccc(CNC(=O)c2c(O)nc3cc(C)ccn3c2=O)cc1 | 109 | 109
CCc1cccc(C)c1NC(=O)CCn1c(=O)c2cccn2c2ccccc21 | 110 | 115
Cc1c(C2=CCN(S(=O)(=O)c3cccc(Cl)c3)CC2)c2ccccc2n1CC(=O)N1CCCC1 | 99 | 103
CN1CC(=O)N(CC(=O)Nc2ccc(Cl)c(C(F)(F)F)c2)c2ccccc2C1=O | 111 | 109
O=c1c2cn[nH]c2nc(SCc2c(F)cccc2F)n1-c1ccc(Cl)cc1 | 112 | 108

Next part
Compound | PV pol inh | PV pol inh intensity
Cc1ccc(NC(=O)Cn2cc(C(=O)C3CC3)c3ccccc32)cc1C | 106 | 108
Cc1cccc(NC(=O)Nc2nnc(N(C)C3CCCCC3)s2)c1C | 106 | 107
Cc1cc(C)c2sc(NC(=O)c3ccc(S(=O)(=O)N4CCCC4)cc3)nc2c1 | 102 | 107
Cc1ccc(NC(=O)C2CCN(S(=O)(=O)c3c(C)noc3C)CC2)c(C)c1 | 114 | 117
CCn1cc2nc(SCc3ccccc3)n(Cc3ccc(C)cc3)c(=O)c2n1 | 105 | 102
CCC1CCCCN1CCCNC(=O)c1[nH]c2ccccc2c1Sc1ccc(Cl)cc1 (stereo not given) | 111 | 119
CCn1c(CNC(=O)C23CC4CC(CC(C4)C2)C3)nnc1SCC(=O)Nc1ccc(C)cc1 | 99 | 101
CC(=O)N1CCCc2cc(S(=O)(=O)N3CCCC(C(=O)N4CCN(c5cccc(Cl)c5)CC4)C3)ccc21 (stereo not given) | 112 | 103
CSc1nc(Nc2cccc(C)c2)c(C#N)c(-c2ccccc2)n1 | 109 | 108
O=[N+]([O-])c1cc(-c2nc(-c3ccccc3)no2)ccc1NCc1ccco1 | 112 | 120
NCCCCCc1nnc(SCc2ccc(F)cc2)o1 | 100 | 101
N#Cc1ccc(OC(=O)c2cc(-c3ccc(Cl)cc3)on2)cc1 | 99 | 94
COc1ccc(-n2c(CC3C(=O)Nc4ccc(C)cc43)nc3ccccc3c2=O)cc1 (stereo not given) | 111 | 106
COc1ccc(-c2cc(-c3ccc(C)cc3)nc3c2COc2ccccc2-3)cc1 | 106 | 112
O=C(Cc1cccs1)NC1CC(=O)N(c2ccccc2)C1 (stereo not given) | 108 | 98
CCOc1ccccc1NC(=O)C1CCCN(S(=O)(=O)c2ccc3c(c2)CCCN3C(C)=O)C1 (stereo not given) | 109 | 115
CCCCN(CCCC)CCNC(=O)c1cc(-c2cccnc2)nc2ccc(S(=O)(=O)N3CCC(C)CC3)cc12 | 108 | 110
COc1ccc(CNC(=O)c2cc3sccc3n2Cc2ccc(F)cc2)cc1 | 100 | 104
COCCNC(=O)CCCn1c(SCc2ccccc2Cl)nc2c(sc3ccccc32)c1=O | 111 | 106
CCNC(=O)c1c2c(nc3ccccc13)C(=O)N(C1CCCCC1)C2 | 109 | 97

Structural class, those above containing an NH in an aromatic ring (three)
Compound | PV pol inh | PV pol inh intensity
Cc1ccc(C2NC(=O)c3n[nH]c(-c4cccs4)c32)cc1 (stereo not given) | 104 | 107
O=c1c2cn[nH]c2nc(SCc2c(F)cccc2F)n1-c1ccc(Cl)cc1 | 112 | 108
CCC1CCCCN1CCCNC(=O)c1[nH]c2ccccc2c1Sc1ccc(Cl)cc1 (stereo not given) | 111 | 119

Next records:
Compound | PV pol inh | PV pol inh intensity
Cc1ccc(NC(=O)C(=O)NCC(c2ccc3c(c2)OCO3)N2CCN(C)CC2)c(C)c1 (stereo not given) | 106 | 110
COc1ccccc1C1Nc2c(sc3nc(C)cc(C)c23)C(=O)N1c1ccccc1 (stereo not given) | 101 | 107
O=C(CCn1cnc2ccccc2c1=O)NCc1ccccc1 | 103 | 101
COc1cccc(NC(=O)C(=O)NCCc2sc(-c3cccc(C)c3)nc2C)c1 | 103 | 97
COc1ccc(-c2noc(-c3cc(-c4ccc(F)cc4)n[nH]3)n2)cc1 | 103 | 107
Cc1ccc2nc(-c3ccc(O)cc3)c(Nc3ccc(Cl)cc3)n2c1 | 102 | 102
O=C(CSc1nnc(-c2ccccc2)o1)c1cccc([N+](=O)[O-])c1 | 108 | 105
Cc1ccc(N(C)S(=O)(=O)c2ccc3[nH]cc(C(=O)O)c(=O)c3c2)cc1C | 101 | 101
COc1ccc(-c2cc(C(F)(F)F)nc(SCC(=O)N3CCC(C)CC3)n2)cc1 | 107 | 111
CC(=O)c1ccc(N2CCN(C(=O)C3CCN(S(=O)(=O)c4c(C)noc4/C=C/c4ccccc4F)CC3)CC2)cc1 | 108 | 104
O=C(CCCc1nc(-c2ccco2)no1)Nc1ccccc1[N+](=O)[O-] | 109 | 111
Cn1c(=O)[nH]c(=O)c2c1nc(CN1CCN(c3ccccc3F)CC1)n2Cc1ccc(F)cc1 | 100 | 103
CCOC(=O)c1ccc(N2C(=O)c3n[nH]c(C)c3C2c2ccc(OCC)cc2)cc1 (stereo not given) | 112 | 110
CC(C)c1ccc(OC(=O)c2cc(-c3ccc4c(c3)OCCO4)on2)cc1 | 105 | 98
CCOc1ccccc1NC(=O)CN1Cc2ccccc2C1=O | 108 | 112
CN(CC(=O)Nc1ccccc1Cl)S(=O)(=O)c1ccc(C(=O)N2CCOCC2)s1 | 109 | 111
COc1ccc(Cl)cc1N(C)C(=O)Cn1cnc2sc(C)c(S(=O)(=O)N3CCN(c4ncccn4)CC3)c2c1=O | 105 | 111
COc1ccccc1/C=C/c1nc2ccccc2n1C(C)C | 103 | 110
CCc1nn2c(=O)c(S(=O)(=O)Nc3ccc(C(C)C)cc3)c(C)nc2s1 | 105 | 111
COc1ccc(-c2cc(C(=O)Nc3cccnc3)no2)cc1OC | 109 | 112

Continuation:
Compound | PV pol inh | PV pol inh intensity
O=C(Nc1ccc(F)cc1)N1CCN(C(=O)c2nsc3ccccc23)CC1 | 104 | 109
COc1ccc(Cl)cc1NC(=O)c1nn(-c2ccc(C)cc2)c(=O)n(C)c1=O | 102 | 104
Cc1oc(-c2ccc(C(=O)Nc3ccc(F)cc3)cc2)nc1COc1ccccc1 | 111 | 111
CCOc1ccccc1-c1noc(CSc2nnc(-c3ccncc3)n2-c2ccc(F)cc2)n1 | 104 | 108
COc1ccc(CNC(=O)CC2Oc3ccc(C)cc3NC2=O)cc1 (stereo not given) | 104 | 105
Cc1cc(OCC(=O)Nc2sc3c(c2C(N)=O)CCCC3)ccc1C(C)C | 103 | 104
CCOc1ccc(C(=O)Cn2c(=O)n3nc(CCn4nc(C)cc4C)nc3c3cc(OC)c(OC)cc32)cc1 | 104 | 100
Cc1ccc(-c2nnc(Nc3ccc(O)cc3)c3ccccc23)cc1S(=O)(=O)NCc1nc2ccccc2[nH]1 | 111 | 110
COC(=O)c1c(C)oc2ccc(N(C(=O)c3ccncc3)S(=O)(=O)c3cc(C)c(C)cc3C)cc12 | 99 | 103
CCOc1ccc(NC(=O)C2CCN(c3nc4ccccc4[nH]3)CC2)cc1 | 109 | 100
CC(=O)N1CCCc2cc(S(=O)(=O)N3CCN(c4ccc(F)cc4)CC3)ccc21 | 104 | 108
Cc1ccc(CC(=O)NCc2nc(-c3cccc(C)c3)no2)cc1 | 112 | 118
CCOc1ccc(NC(=O)c2cn(C3CCCCC3)c(=O)c3c2c2ccccc2n3C)cc1 | 115 | 116
COc1cc2c(cc1OC)C(COc1ccc3c(C)cc(=O)oc3c1)N(C(=O)Cc1ccc(F)cc1)CC2 (stereo not given) | 106 | 109
COc1cccc(NC(=O)CN2C(=O)c3cccnc3Oc3ccc(Cl)cc32)c1 | 110 | 111
CCc1ccc(-c2nc(SCC(=O)NCC3CCCO3)c(-c3ccc(F)cc3)[nH]2)cc1 (stereo not given) | 118 | 118
CCc1nnc2c(NCc3ccccc3OC)nc3ccccc3n12 | 107 | 106
O=C(COc1ccccc1F)N1CCN(Cc2cc(=O)n3nc(-c4ccccc4Cl)sc3n2)CC1 | 106 | 103
CCOc1ccc(-n2cc(C(=O)Nc3ccccc3OCC)c3cc(OC)c(OC)cc3c2=O)cc1 | 103 | 109
COc1ccc(OC)c(CNC(=O)c2cc3c(Cl)nc4ccccc4c3s2)c1 | 106 | 110

Remaining list, next part.
Compound | PV pol inh | PV pol inh intensity
CCOC(=O)c1c(S(=O)(=O)N2CCC(C(=O)N3CCN(c4cccc(C)c4C)CC3)CC2)c(C)n(C)c1C | 105 | 108
CCOC(=O)c1cccc(NC(=O)CC2C(=O)N(c3ccc(Cl)cc3)C(=O)N2C2CCCC2)c1 (stereo not given) | 103 | 106
CC(C)CCN1C(=O)N(c2ccccc2)C(=O)C1CC(=O)Nc1ccc(Cl)cc1 (stereo not given) | 105 | 105
Cc1cccc(NS(=O)(=O)c2ccc3c(c2)OCC(C(=O)N2CCCC2)O3)c1C (stereo not given) | 104 | 110
Cc1cccc(C2C=C(c3ccc(C)c(C)c3)Nc3nnnn32)c1 (stereo not given) | 100 | 99
COc1ccc(C(CC(=O)Nc2ncccc2C)N2Cc3ccccc3C2=O)cc1OC (stereo not given) | 110 | 111
COc1ccc(C(=O)NCc2nnnn2-c2ccc(C)c(C)c2)cc1 | 105 | 109
CCC1CCc2nc3sc(C(=O)Nc4ccc(C)cc4C)c(N)c3cc2C1 (stereo not given) | 112 | 115

Molecules above that have a Cl atom:
Compound | PV pol inh | PV pol inh intensity
COc1ccc(-c2oc3ncn4nc(-c5ccc(Cl)cc5)nc4c3c2-c2ccc(OC)cc2)cc1 | 105 | 105
O=C(CCC1N=C2c3ccccc3N=C(SCc3ccccc3Cl)N2C1=O)NCc1cccs1 (stereo not given) | 106 | 114
O=C(CCS(=O)(=O)c1nc(-c2cccs2)cc(C(F)(F)F)n1)Nc1ccc(F)c(Cl)c1 | 105 | 104
O=C(c1cc2c(Cl)nc3ccccc3c2s1)N1CCCCC1 | 105 | 108
COc1ccc(S(=O)(=O)c2cnc3ccc(Cl)cc3c2N2CCCCC2C)cc1 (stereo not given) | 104 | 106
Cc1c(C2=CCN(S(=O)(=O)c3cccc(Cl)c3)CC2)c2ccccc2n1CC(=O)N1CCCC1 | 99 | 103
CN1CC(=O)N(CC(=O)Nc2ccc(Cl)c(C(F)(F)F)c2)c2ccccc2C1=O | 111 | 109
O=c1c2cn[nH]c2nc(SCc2c(F)cccc2F)n1-c1ccc(Cl)cc1 | 112 | 108
CCC1CCCCN1CCCNC(=O)c1[nH]c2ccccc2c1Sc1ccc(Cl)cc1 (stereo not given) | 111 | 119
CC(=O)N1CCCc2cc(S(=O)(=O)N3CCCC(C(=O)N4CCN(c5cccc(Cl)c5)CC4)C3)ccc21 (stereo not given) | 112 | 103
N#Cc1ccc(OC(=O)c2cc(-c3ccc(Cl)cc3)on2)cc1 | 99 | 94
COCCNC(=O)CCCn1c(SCc2ccccc2Cl)nc2c(sc3ccccc32)c1=O | 111 | 106
Cc1ccc2nc(-c3ccc(O)cc3)c(Nc3ccc(Cl)cc3)n2c1 | 102 | 102
CN(CC(=O)Nc1ccccc1Cl)S(=O)(=O)c1ccc(C(=O)N2CCOCC2)s1 | 109 | 111
COc1ccc(Cl)cc1N(C)C(=O)Cn1cnc2sc(C)c(S(=O)(=O)N3CCN(c4ncccn4)CC3)c2c1=O | 105 | 111
COc1ccc(Cl)cc1NC(=O)c1nn(-c2ccc(C)cc2)c(=O)n(C)c1=O | 102 | 104
COc1cccc(NC(=O)CN2C(=O)c3cccnc3Oc3ccc(Cl)cc32)c1 | 110 | 111
O=C(COc1ccccc1F)N1CCN(Cc2cc(=O)n3nc(-c4ccccc4Cl)sc3n2)CC1 | 106 | 103
COc1ccc(OC)c(CNC(=O)c2cc3c(Cl)nc4ccccc4c3s2)c1 | 106 | 110
CCOC(=O)c1cccc(NC(=O)CC2C(=O)N(c3ccc(Cl)cc3)C(=O)N2C2CCCC2)c1 (stereo not given) | 103 | 106
CC(C)CCN1C(=O)N(c2ccccc2)C(=O)C1CC(=O)Nc1ccc(Cl)cc1 (stereo not given) | 105 | 105
